Bioassay records as filed in PubChem BioAssay.
Vaccinia inh – Vaccinia orthopox stage-specific inhibition; hit rate 0.01% among 89,000; activity change (mCherry), % (concentration not given with the values); Vaccinia-infected cells, mCherry/Venus stage reporter fluorescence; hits give low values; some inactives read as strong as hits;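 active = mCherry past -33% and 40 or more points under the early reporter, replicates agreeing; inconclusive = past -33% without that gap or agreement; tested in A549 cells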;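 also: scaled between vehicle wells and reference inhibitor wells; 23 nL library stock went into each well; one replicate is shown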
Vaccinia inh Venus – second read-out of Vaccinia inh, no call of its own (marks repeat the call); activity change (Venus), %; measured here: Venus reporter, other viral stage;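 negative = less Venus signal; first of two replicates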
An asterisk follows results filed as active; ? = inconclusive; . = no result given; & = joins results of further samples.

Start of the data: the first 4 records as a preview:
SMILES	Vaccinia inh	Vaccinia inh Venus
COCC#Cc1ccc([C@@H]2[C@@H](CO)N3CCCCN(Cc4ccccc4F)C[C@H]23)cc1	-23	-17
COC(=O)C[C@@H]1CC[C@@H]2[C@H](COC[C@H](O)CN2CCC(F)(F)F)O1	2	17
CCC(=O)N1CCCCN2[C@H](CO)[C@H](c3ccc(C#CCOC)cc3)[C@@H]2C1	22	14
CC(C)NC(=O)N(C)C[C@H]1OCCCC[C@H](C)Oc2ccc(NS(=O)(=O)c3cn(C)cn3)cc2C(=O)N([C@H](C)CO)C[C@@H]1C	22	15

All compounds of this part, from the first entry:
SMILES	Vaccinia inh	Vaccinia inh Venus
COCC#Cc1ccc([C@@H]2[C@@H](CO)N3CCCCN(Cc4ccccc4F)C[C@H]23)cc1	-23	-17
COC(=O)C[C@@H]1CC[C@@H]2[C@H](COC[C@H](O)CN2CCC(F)(F)F)O1	2	17
CCC(=O)N1CCCCN2[C@H](CO)[C@H](c3ccc(C#CCOC)cc3)[C@@H]2C1	22	14
CC(C)NC(=O)N(C)C[C@H]1OCCCC[C@H](C)Oc2ccc(NS(=O)(=O)c3cn(C)cn3)cc2C(=O)N([C@H](C)CO)C[C@@H]1C	22	15
O=C(C[C@H]1CC[C@H]2NC[C@@H](O)COC[C@@H]2O1)NCCc1ccccc1	10	11
O=C(C[C@@H]1CC[C@H]2[C@@H](COC[C@@H](O)CN2C(=O)Nc2ccccc2)O1)NCc1ccccc1F	13	6
O=C(C[C@@H]1CC[C@H]2[C@@H](COC[C@H](O)CN2S(=O)(=O)c2ccccc2)O1)Nc1ccccc1	2	1
COC(=O)[C@H]1[C@H](CO)[C@H]2Cn3c(ccc(-c4ccccc4F)c3=O)[C@@H]1N2C(C)=O	13	9
C[C@H]1CN([C@@H](C)CO)S(=O)(=O)c2ccc(-c3cccnc3)cc2O[C@H]1CN(C)CC1CC1	28	15
C[C@H]1CN([C@@H](C)CO)C(=O)Cc2cc(NC(=O)C3CCCCC3)ccc2O[C@H]1CN(C)C(=O)Nc1ccc(C(F)(F)F)cc1	-3	3
C[C@H]1CN([C@@H](C)CO)C(=O)c2cccc(NC(=O)C3CC3)c2O[C@@H]1CN(C)Cc1ccncc1	16	9
C[C@@H]1CN([C@@H](C)CO)C(=O)c2cc(NC(=O)C3CCCCC3)ccc2O[C@@H](C)CCCCO[C@H]1CN(C)Cc1ccc(C(=O)O)cc1	12	2
COc1ccc2c3c([nH]c2c1)[C@H](CO)N(Cc1ccccc1OC)CC31CN(C)C1	0	6
CCCC(=O)N1CCC2(CC1)CN(C(=O)CC)[C@H](CO)c1c2c2ccc(OC)cc2n1C	-3	-1
CCNC(=O)C[C@@H]1C=C[C@@H](NC(=O)NC2CCCCC2)[C@H](CO)O1	-5	1
CCC(=O)N1CCCCN2[C@H](CO)[C@H](c3ccc(C#Cc4ccccc4)cc3)[C@@H]2C1	-16	-21
CC(=O)N1CC(=O)N2[C@H](CO)[C@@H](c3ccc(C#CC(C)C)cc3)[C@@H]2C1	21	0
CC(C)COC(=O)N(C)C[C@@H]1OCc2ccccc2-c2c(n(C)c3ccccc23)C(=O)N([C@@H](C)CO)C[C@@H]1C	?	.
C[C@@H]1CN([C@@H](C)CO)C(=O)c2cc(NS(=O)(=O)c3ccc(Cl)cc3)ccc2O[C@@H](C)CCCCO[C@H]1CN(C)Cc1ccccc1	?	.
CCCN(C)C[C@@H]1OCCCC[C@@H](C)Oc2ccc(N(C)C)cc2C(=O)N([C@H](C)CO)C[C@@H]1C	-4	-2
O=C(Nc1cccc(F)c1)N1CCCCN2[C@@H](CO)[C@H](c3ccc(C#CC4CC4)cc3)[C@@H]2C1	?	.
COc1cccc(-c2ccc(C3[C@H]4CNC[C@@H]3N4C(=O)Nc3ccccc3Cl)cc2)c1 (stereo not given in full)	-24&2	-9&15
CCC(=O)N1CC2(C1)CN(Cc1ccccc1Cl)[C@@H](CO)c1c2c2ccc(OC)cc2n1C	-3	-6
CO[C@@H]1CN(C)C(=O)c2ccc(NC(=O)Nc3ccccc3F)cc2OC[C@@H](C)N(CC2CC2)C[C@H]1C	-33	-20
COc1cccc(NC(=O)N2CC(=O)N3[C@@H](CO)[C@H](c4ccc(C#CC5CCCCC5)cc4)[C@@H]3C2)c1	-15	-27
C[C@H](CO)N1C[C@H](C)[C@@H](CN(C)C(=O)Nc2ccc3c(c2)OCO3)Oc2ccc(NC(=O)CCN3CCOCC3)cc2C1=O	29	16
CC(=O)N1[C@H](CN(C)C(=O)C2CCC2)[C@@H](c2ccccc2)[C@@H]1CO	20	15
O=C(C[C@H]1C=C[C@@H](NC(=O)Nc2cccc(F)c2)[C@H](CO)O1)NCC1CC1	-8	-1
C[C@@H]1CN([C@@H](C)CO)C(=O)CCCn2nncc2CO[C@@H]1CN(C)Cc1ccc2cccnc2c1	0	2
COCC#Cc1ccc2c(c1)O[C@H](CN(C)C(=O)C1CCCCC1)[C@H](C)CN([C@@H](C)CO)S2(=O)=O	5	0
CC(C)NC(=O)Nc1ccc2c(c1)C(=O)N([C@@H](C)CO)C[C@H](C)[C@H](CN(C)C(=O)Nc1ccc(F)cc1)OCCCC[C@@H](C)O2	12	8
CCCNC(=O)N1CC2(C1)CN(Cc1ccc(F)cc1)[C@H](CO)c1[nH]c3cc(OC)ccc3c12	1	2
CCCC#Cc1cnc2c(c1)C(=O)N([C@@H](C)CO)C[C@H](C)[C@@H](CN(C)C)O2	2	5
C[C@@H]1CN([C@H](C)CO)C(=O)c2cc(C3=CCCCC3)cnc2O[C@@H]1CN(C)C(=O)Nc1cccc(F)c1	-20	-31
N#Cc1ccc(-c2ccc([C@@H]3[C@@H](CO)N4C(=O)CN(C(=O)C5CCCCC5)C[C@H]34)cc2)cc1	-20	-39
C[C@@H]1CN([C@@H](C)CO)C(=O)c2cc(C#Cc3ccccc3F)cnc2O[C@H]1CN(C)C(=O)C1CCCCC1	?	.
COc1ccccc1NC(=O)N1[C@@H](C#N)[C@@H](c2ccccc2)[C@@H]1CO	12	3
CO[C@H]1CN(C)C(=O)c2ccc(NC(=O)Nc3ccccc3F)cc2OC[C@H](C)N(C(C)=O)C[C@@H]1C	-5	-8
C[C@@H]1CN([C@@H](C)CO)C(=O)c2cc(-c3ccc(F)cc3)cnc2O[C@@H]1CN(C)CC1CCCCC1	-30	-18
Cc1ccc(-c2ccc([C@H]3[C@H]4CN(C(=O)CN5CCOCC5)CC(=O)N4[C@H]3CO)cc2)cc1	-23	-32
C[C@@H]1CN([C@H](C)CO)C(=O)Cc2cc(NC(=O)Nc3ccccc3)ccc2O[C@H]1CN(C)C(=O)Nc1cccc2ccccc12	31	33
CCN1[C@@H]2Cn3c(ccc(-c4ccccc4F)c3=O)[C@H]1[C@@H](C(=O)NCCOC)[C@@H]2CO	-2	-2
Cc1noc(C)c1NC(=O)NCC[C@@H]1CC[C@H](NC(=O)Cc2cccnc2)[C@@H](CO)O1	13	13
C[C@@H]1CN([C@H](C)CO)C(=O)c2cccc(NC(=O)c3ccc(-c4nccs4)cc3)c2O[C@H]1CN(C)C(=O)NC1CCCCC1	-7	-6
CCC(=O)N(C)C[C@H]1Oc2ncc(C3=CCCC3)cc2C(=O)N([C@@H](C)CO)C[C@@H]1C	17	9
C[C@@H]1CN([C@@H](C)CO)C(=O)Cc2cc(NC(=O)c3ccncc3)ccc2O[C@H]1CN(C)Cc1ccc(Oc2ccccc2)cc1	?	.
COc1ccc(NC(=O)Nc2ccc3c(c2)C(=O)N([C@@H](C)CO)C[C@H](C)[C@H](CN(C)Cc2ccncc2)O3)cc1	13	4
CCC(=O)N1CC2(CN(Cc3cccnc3)C2)c2c(n(C)c3cc(OC)ccc23)[C@@H]1CO	5	0
CO[C@H]1CN(C)C(=O)c2cc(NS(C)(=O)=O)ccc2OC[C@@H](C)N(C(=O)CN(C)C)C[C@@H]1C	6	0
C[C@H]1CN([C@@H](C)CO)C(=O)Cc2cc(NC(=O)Nc3ccc(F)cc3)ccc2O[C@@H]1CN(C)S(=O)(=O)c1ccccc1	12	8
CO[C@H]1CN(C)C(=O)c2cc(NC(=O)C3CC3)ccc2OC[C@H](C)N(C(=O)CN(C)C)C[C@@H]1C	-2	-4
O=C(C[C@H]1CC[C@@H](NC(=O)c2cccnc2)[C@H](CO)O1)NCc1ccncn1	9	10
C[C@@H]1CN([C@@H](C)CO)C(=O)c2cccc(NC(=O)c3cnccn3)c2O[C@H]1CN(C)Cc1ccc(C(F)(F)F)cc1	-21	-17
COc1ccc(S(=O)(=O)N(C)C[C@H]2Oc3ccc(NS(=O)(=O)c4c(C)noc4C)cc3CC(=O)N([C@@H](C)CO)C[C@H]2C)cc1	13	3
COc1ccc(NC(=O)Nc2ccc3c(c2)C(=O)N([C@@H](C)CO)C[C@@H](C)[C@H](CN(C)C(=O)Cc2ccccc2)OCCCC[C@H](C)O3)cc1	-23	-16
C[C@@H]1CN([C@H](C)CO)C(=O)c2cc(-c3cccc(C#N)c3)cnc2O[C@H]1CN(C)C(=O)C1CCOCC1	15	11
CC=Cc1ccc2n(c1=O)C[C@H]1[C@H](CO)[C@@H](C(=O)NCC)N(C(=O)C3CCOCC3)[C@@H]21 (mixture of isomers)	17	21
C[C@@H]1CN([C@H](C)CO)C(=O)c2cc(C3=CCCC3)cnc2O[C@@H]1CN(C)C(=O)NC1CCCC1	2	6
COc1ccc(S(=O)(=O)N2C[C@H](O)COC[C@H]3O[C@@H](CC(=O)NCCCN4CCOCC4)CC[C@@H]32)cc1	21	11
CNC[C@@H]1Oc2ccc(NC(=O)CCC(F)(F)F)cc2CC(=O)N([C@@H](C)CO)C[C@@H]1C	11	8

4 entries from above, bar-delimited.
mol | Vaccinia inh | Vaccinia inh Venus
CNC[C@@H]1Oc2ccc(NC(=O)CCC(F)(F)F)cc2CC(=O)N([C@@H](C)CO)C[C@@H]1C | 11 | 8
C[C@@H]1CN([C@@H](C)CO)C(=O)c2cccc(NC(=O)c3cnccn3)c2O[C@H]1CN(C)Cc1ccc(C(F)(F)F)cc1 | -21 | -17
CCC(=O)N1CC2(CN(Cc3cccnc3)C2)c2c(n(C)c3cc(OC)ccc23)[C@@H]1CO | 5 | 0
C[C@H]1CN([C@@H](C)CO)C(=O)Cc2cc(NC(=O)Nc3ccc(F)cc3)ccc2O[C@@H]1CN(C)S(=O)(=O)c1ccccc1 | 12 | 8

The list goes on:
SMILES	Vaccinia inh	Vaccinia inh Venus
CN(C)CC(=O)N1[C@H](C#N)[C@@H](c2ccc(C#Cc3cccnc3)cc2)[C@H]1CO	6	1
COc1ccc2c3c(n(C)c2c1)[C@@H](CO)N(Cc1ccccc1)CC31CCN(S(C)(=O)=O)CC1	-11	-17
CCCC#Cc1ccc2c(c1)O[C@H](CN(C)C(C)=O)[C@H](C)CN([C@H](C)CO)S2(=O)=O	6	8
COc1ccc(S(=O)(=O)Nc2cccc3c2O[C@@H](CN(C)C(=O)Nc2ccc4c(c2)OCO4)[C@@H](C)CN([C@@H](C)CO)C3=O)cc1	17	12
COc1ccc2c3c(n(C)c2c1)[C@@H](CO)N(C(=O)CN(C)C)CC31CCN(C(=O)NC(C)C)CC1	11	8
Cc1noc(C)c1S(=O)(=O)Nc1cccc2c1O[C@H](CN(C)Cc1ccncc1)[C@H](C)CN([C@H](C)CO)C2=O	16	13
C[C@@H]1CN([C@H](C)CO)C(=O)Cc2cc(NC(=O)CCC(F)(F)F)ccc2O[C@H]1CN(C)Cc1ccc2c(c1)OCO2	-7	-12
COc1ccc(S(=O)(=O)N(C)C[C@@H]2Oc3ccc(NC(=O)NC4CCCCC4)cc3CC(=O)N([C@H](C)CO)C[C@H]2C)cc1	2	-2
C[C@H]1CN([C@@H](C)CO)C(=O)c2cc(NC(=O)CCCCCC(=O)Nc3ccccc3N)ccc2O[C@H]1CN(C)Cc1ccncc1	0	12
C[C@@H]1CN([C@H](C)CO)C(=O)c2cc(NC(=O)CCC(F)(F)F)ccc2O[C@@H](C)CCCCO[C@@H]1CN(C)C(=O)C1CCCCC1	4	3
O=C(C1CC1)N1C[C@@H]2[C@H](c3ccccc31)[C@H](CO)N2C(=O)Nc1cccc(F)c1	-11	8
C[C@@H]1CN([C@@H](C)CO)C(=O)c2cccc(NS(C)(=O)=O)c2O[C@@H]1CN(C)S(=O)(=O)c1ccc(Cl)cc1	-3	4
N#C[C@H]1[C@@H](c2ccc(-c3ccccc3F)cc2)[C@H](CO)N1C(=O)C1CCC1	-28	-17
COc1ccc(NC(=O)N(C)C[C@H]2Oc3ccc(NC(=O)Nc4ccc(F)cc4)cc3CC(=O)N([C@@H](C)CO)C[C@H]2C)cc1	14	18
C[C@H](CO)N1C[C@H](C)[C@@H](CN(C)C(=O)Nc2ccc(C(F)(F)F)cc2)Oc2ccc(NS(=O)(=O)c3cccs3)cc2C1=O	11	12
COCC(=O)Nc1ccc2c(c1)OC[C@@H](C)N(C(=O)Cc1cccnc1)C[C@H](C)[C@@H](OC)CN(C)C2=O	22	17
C/C=C/c1ccc([C@@H]2[C@@H](CO)N(C(C)=O)[C@H]2CNC(=O)c2ccncc2)cc1	1	8

The list is partial (hit frequency here may not be typical).
